High-throughput results (PubChem)
KCNQ2 enhance = enhances the rat KCNQ2 potassium channel; O88943; CHO-K1 KCNQ2, FluxOR thallium flux fluorescence; stronger effect = higher value; B-score at 10 µM; 310,000 compounds, 0.54% hits; AID 2239;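 active = fluorescence ratio B-score at least 3 SD of library B-scores, with initial fluorescence B-score within 3 SD, cut at about 5.3 in these data; same plate scores as AID 2156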;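 also: B-score of peak minus minimum over baseline fluorescence ratio after K+ and Tl+ stimulus; positive B-score means potentiation of KCNQ2 with more thallium influx and brighter signal; only the inactives scoring about 0 or higher are listed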
Target sequence (O88943 whole entry, looked up): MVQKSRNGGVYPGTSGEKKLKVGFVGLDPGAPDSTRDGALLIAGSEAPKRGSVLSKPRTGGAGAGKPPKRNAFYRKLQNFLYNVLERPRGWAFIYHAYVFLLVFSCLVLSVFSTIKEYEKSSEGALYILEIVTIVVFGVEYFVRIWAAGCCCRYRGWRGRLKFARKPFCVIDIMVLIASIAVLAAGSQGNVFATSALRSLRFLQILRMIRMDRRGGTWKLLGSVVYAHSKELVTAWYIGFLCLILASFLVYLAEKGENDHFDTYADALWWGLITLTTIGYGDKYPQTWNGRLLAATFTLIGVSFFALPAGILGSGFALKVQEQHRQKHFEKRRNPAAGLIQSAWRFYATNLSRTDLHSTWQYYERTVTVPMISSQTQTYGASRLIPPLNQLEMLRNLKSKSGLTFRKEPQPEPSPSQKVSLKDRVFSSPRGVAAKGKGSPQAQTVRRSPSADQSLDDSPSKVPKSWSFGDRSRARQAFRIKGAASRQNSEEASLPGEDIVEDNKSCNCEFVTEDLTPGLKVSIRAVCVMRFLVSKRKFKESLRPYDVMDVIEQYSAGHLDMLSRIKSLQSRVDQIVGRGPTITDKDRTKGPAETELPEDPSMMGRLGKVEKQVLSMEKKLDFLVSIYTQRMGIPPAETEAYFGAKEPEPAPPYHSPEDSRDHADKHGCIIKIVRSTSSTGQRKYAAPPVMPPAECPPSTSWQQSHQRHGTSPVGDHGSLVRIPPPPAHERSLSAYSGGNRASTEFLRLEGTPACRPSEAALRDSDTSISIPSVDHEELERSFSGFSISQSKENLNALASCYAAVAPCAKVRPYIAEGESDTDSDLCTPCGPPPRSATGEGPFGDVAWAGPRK
KCNQ2 enhance baseline = recorded beside KCNQ2 enhance, whose call it bears; B-score; compound at 10 µM; measured here: initial fluorescence intensity artifact check;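 brightness before thallium and not channel activity; 0 = typical well and far values either way flag optical interference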
* = called active by the depositor.

SMILES	KCNQ2 enhance	KCNQ2 enhance baseline
C=CCOc1ccc(CNn2nnnc2N)cc1	0.6	-0.61
CCOC(=O)c1c(CS(=O)(=O)c2ccccc2)n(C)c2cc(Br)c(O)cc12	0.97	0.89
OCCN1CCN(CC(O)COCc2ccc3c(c2)OCO3)CC1 (stereo not given)	0.11	2.7
CC(C)(C)C(=O)NC(=S)NNC(=O)C(c1ccccc1)c1ccccc1	6.6*	-0.87*
Cc1cnc(C(=O)OCC(=O)c2ccc(C3CCCCC3)cc2)cn1	0.16	0.36
Cc1ccc(-n2nc(C)c(C(=O)N3CCN(C(=O)c4ccco4)CC3)c2-n2cccc2)cc1	0.01	-0.08
CCOC(=O)N1CCN(S(=O)(=O)c2ccc(F)c(C(=O)Nc3cccc(C)c3C)c2)CC1	0.83	1.9
CCn1c(SCC(=O)Nc2ccc(C)cc2)nc2sc3c(c2c1=O)CCN(C)C3	1.2	-0.32
CCNS(=O)(=O)c1cccc(C(=O)c2c(C)cc3ccccn23)c1	0.05	-2.4
O=C(NCCN1CCOCC1)c1ccc2c(c1)N(Cc1ccc(F)cc1)C(=O)c1ccccc1S2(=O)=O	0.64	0.79
O=C(Cn1cc(C(=O)C(F)(F)F)c2ccccc21)Nc1ccccc1F	0.55	-1.9
Cn1c(=O)[nH]c(=O)c2c1nc(SCC(O)CO)n2Cc1ccccc1Cl (stereo not given)	0.88	-1.8
CCNC(=S)N(CCN(CC)CC)Cc1cc2cc3c(cc2[nH]c1=O)OCO3	1.2	-1
CC1CN(CC(=O)NCc2ccc(Cl)cc2)CC(C)O1 (stereo not given)	0.72	-0.83
c1ccc(-c2nn3cnnc3c3ccccc23)cc1	2.6	-0.72
Cc1ccc(Nc2nc(N)nc(CN3CCc4ccccc4C3)n2)cc1	4.8	-0.98
COc1ccc(CCNC(=O)CSC2=NS(=O)(=O)c3cc(Cl)ccc3N2)cc1OC	1.5	-1.3
CN(CC(=O)Nc1cccc(F)c1)C(=O)CCCc1cccs1	1.4	-1.1
Brc1ccc(Nc2ncnc3[nH]ncc23)cc1	2.4	0.66
CC1CCCC(C)N1/N=C/c1ccc(Cl)cc1 (stereo not given)	0.26	0.06
COc1ccc(CNC(=O)c2cc(=O)c3ccc(C)c(C)c3o2)cc1	0.23	-2.5
COc1cccc(CNC(=O)CC(NC(C)=O)c2ccccc2)c1 (stereo not given)	0.29	-0.06
O=C(CSc1nnnn1-c1ccc(F)cc1)NNC(=O)c1ccco1	0.73	-0.78
COc1ccc(OC)c(NC(=O)c2cc(S(=O)(=O)NCc3ccco3)ccc2F)c1	0.55	0.72
O=C(Nn1cnc2ccccc2c1=O)c1ccc(Br)cc1	0.37	-2.5
O=C(CN1CCN(Cc2ccccc2)CC1)N/N=C/c1cccnc1	0.58	-0.81
COc1ccc([N+](=O)[O-])cc1NS(=O)(=O)c1ccc(C)cc1	0.28	1.8
CCN(CC)CCC(=O)N1c2ccccc2Sc2ccc(Cl)cc21	0.25	-0.22
CCOC(=O)c1c(N)nn(C(=O)C(C)(C)C)c1-c1ccccc1	1	0.9
CC(C)c1ccc(NC(=O)C2CC(=O)Nc3nc4ccccc4n32)cc1 (stereo not given)	1.3	0.06
CCOc1ccc(NC(=O)CSc2nnc(-c3ccoc3C)n2CC2CCCO2)cc1 (stereo not given)	0.71	-0.21
CCc1c(O)nc(SCC(=O)Nc2ccc(Br)cc2)n(-c2ccc(C)cc2)c1=O	1.2	-1.3
COC(=O)NNC(=O)COc1ccc(Br)c(C)c1	0.48	-0.41
CN(C(=O)c1cc2c(=O)n3ccccc3nc2n1C)C1CCCCC1	1.1	-0.79
COc1ccccc1CC(=O)N1CCN(c2ccc(F)cc2)CC1	0.03	0.3
COc1ccc(C(CCNC(C)c2ccccc2)C(C)C)cc1 (stereo not given)	0.56	0.28
O=C(Nc1ccccn1)NC1CCS(=O)(=O)C1 (stereo not given)	0.07	-3.7
CC(=O)NCCC(=O)Nc1ccc(F)cc1C	0.33	-0.04
CCc1ccccc1NC(=O)Cc1cn(C)c2ccccc12	2	0.29
CN(c1ccccc1C(=O)Nc1ccc2c(c1)n(C)c(=O)n2C)S(C)(=O)=O	1.1	0.25
CSC1=C(C#N)C(c2ccccc2Cl)C(C(=O)c2cccs2)C(O)(C(F)(F)F)N1 (stereo not given)	0.2	0.17
CCCC(=O)c1ccc(N2CCN(C(=O)OCC)CC2)c(F)c1	0.91	-1.1
Cc1ccc(NCC(=O)N/N=C/c2ccc(-c3cccc(C(F)(F)F)c3)o2)cc1	0.61	1.1
O=C(COC(=O)c1cc2ccccc2oc1=O)Nc1ccc(F)cc1F	0.05	-0.75
Cn1c(=O)c2c(nc(NN=C3CCCC3)n2C)n(C)c1=O	0.17	-0.05
Cc1ccc(C(=O)O)cc1NC(=S)NCCc1ccccc1	1.6	-0.6
CNS(=O)(=O)c1cc(NC(=O)CCNC(=O)c2ccco2)ccc1C	1.4	-0.85
Cn1nc(C(F)(F)F)c(-c2ccccc2)c1NC(=O)c1cccnc1	0.54	-0.98
Cc1cc(C)c[n+](C[n+]2cc(C)cc(C)c2)c1	0.16	-0.92
O=[N+]([O-])c1cc(Br)c(OCc2nnc(-c3ccccc3)o2)c(Br)c1	0.95	-0.77
COc1cccc(Cn2c(NCC(C)C)nc3c2c(=O)n(C)c(=O)n3C)c1	0.08	-0.35
CC1CCCC(C)N1C(=O)CSc1nnc(CSc2ncccn2)n1C (stereo not given)	0.58	-0.38
CCCCn1c(SCC(=O)Nc2cc(C)on2)nc2c1c(=O)n(C)c(=O)n2C	0.89	-2.3
CCOC(=O)c1cc(NC(=O)CCC(=O)O)ccc1N1CCCCC1	0.19	0.55
CCOc1ccc(Cn2nnc(C(=O)NCCc3ccc(Cl)cc3)c2N)cc1	0.17	-0.08
O=C(CCNC(=O)C1CCN(S(=O)(=O)c2ccccc2)CC1)Nc1ccccc1	0.11	-3.7
CC(=O)c1cc(C(=O)NC2CCCc3c2cnn3-c2cc(C)cc(C)c2)[nH]n1 (stereo not given)	2.6	-0.65
Cn1c(-c2ccccc2)cnc1NCc1ccc(F)cc1	0.22	-1
C[n+]1cn(CC(O)COCc2ccccc2)c2ccccc21 (stereo not given)	0.31	0.67
CCOC(=O)c1c(C)[nH]c(C)c1C(=O)COC(=O)c1ccc(OC)c(OC)c1	0.76	-0.24

More structures follow:
SMILES	KCNQ2 enhance	KCNQ2 enhance baseline
CSc1nc(C)cc(SCC(=O)Nc2ccccc2)n1	1.4	-0.48
Cc1ccc(N2C(=O)Nc3ccccc3C2(O)C(=O)N2CCN(c3ccccn3)CC2)cc1C (stereo not given)	2.9	-2.1
N#Cc1ccc(COC(=O)c2cccnc2Cl)cc1	0.05	1.3
O=C(O)c1cccc(NC(=S)NC(NC(=O)c2ccco2)C(Cl)(Cl)Cl)c1 (stereo not given)	1.2	-0.54
CCOC(=O)c1nnn(-c2nonc2N)c1CNC(C)C	0.86	-0.16
Fc1cccc(Nc2ncnc3sccc23)c1	1.1	-1.6
O=C(NCc1ccccc1)N1CCC(CO)(CCc2ccccc2)CC1	0.84	2.4
O=C(Oc1cccc2cccnc12)c1ccc(Br)o1	0.65	0.78
O=C1C=Cc2ccccc2/C1=C/c1[nH]c(=O)[nH]c1O	0.75	0.01
CC(CCc1ccccc1)NC(=O)CCCCCNc1nc(=S)[nH]c2ccccc12 (stereo not given)	0.14	0.62
CC(=O)Nc1c2c(nn1-c1ccccc1)CS(=O)C2 (stereo not given)	1.1	1.5
CCOC(=O)C1(CCOc2ccccc2)CCN(Cc2ccc(OC)c(O)c2)CC1	1.6	0.73
CC(C)NCCCCOc1ccc(Br)cc1Cl	1.9	-0.38
O=C(NCC1CC1)Nc1ccc(Cl)cc1	0.3	-0.22
CCOc1ccc(C(=O)NCC(=O)NCCOc2ccc(C)cc2)cc1	0.5	0.4
O=C(CN1CCOCC1)Nc1ccc([N+](=O)[O-])cc1Br	1.2	1.1
Cc1nc(SCCO)c([N+](=O)[O-])[nH]1	0.87	1.2
CC(=O)c1ccc(NC(=O)CSc2nc(N)c3cc4c(nc3n2)CCCC4)cc1	0.9	-1.2
CN=C1CC(C)(C)CC(=O)/C1=C(/O)CCCN1C(=O)c2ccccc2C1=O	0.55	-0.59
O=C(O)c1cc(-c2ccc(/C=N/Nc3ccc([N+](=O)[O-])cn3)o2)ccc1Cl	0.49	0.37
COc1cc(/C=C2\CCCc3c2nc2ccccc2c3C(=O)O)cc(Br)c1O	2.2	-2.8
C(=N\Nc1ncnc2sc3c(c12)CCC3)/c1cccs1	0.02	2.6
O=C(C1CCN(c2ncnc3c2nc2n3CCCCC2)CC1)N1CCN(c2ccccc2F)CC1	1	0.11
COc1ccc(-c2cc(C(=O)N3CCCC3)c3ccccc3n2)cc1OC	0.4	-2.4
CS(=O)(=O)N(CC(=O)NC1CCCC1)c1ccc(Oc2ccccc2)cc1	0.01	-0.44
Cc1cc(C)c(C)c(S(=O)(=O)N2CCN(C(=O)CCc3nc4ccccc4c(=O)[nH]3)CC2)c1C	0.12	0
O=c1oc2ccccc2c(NC2CCCCC2)c1NS(=O)(=O)c1ccc(F)c(Cl)c1	0.16	0.47
Cc1cccc(C)c1NC(=S)N(Cc1ccco1)C1CCN(C(C)C)CC1	0.65	-0.25
CCN(CC)C(=O)CN1C(=O)C2CC=C(Cl)CC2C1=O (stereo not given)	0.5	0.94
C/C(=N\NC(=O)c1ccc(O)cc1O)c1cccnc1	0.02	-0.84
CCN1CCN(c2ccc(S(=O)(=O)N3CCCCC3)cc2NC(=O)c2cccc(C)c2[N+](=O)[O-])CC1	0.28	-0.07
Cc1csc(NC(=O)/C=C/c2ccc3c(c2)OCO3)n1	0.52	2.2
CCc1cc(=O)oc2cc(OCC(=O)NC3CC(C)(C)NC(C)(C)C3)ccc12	0.47	-0.78
Cc1ccc2c3c([nH]c2c1)C(=O)CC(C)(C)S3	0.05	0.89
Cc1onc(-c2c(Cl)cccc2Cl)c1C(=O)n1nnc2ccccc21	0.69	0.44
CC(C)(C)C(=O)Nc1cc2c3c(c1)CCN3C(=O)CC2	0.71	-0.44
CCN(CC)c1ccc(C=N/C(C#N)=C(\N)C#N)cc1	0.01	0
NC(=O)c1nsc(C(=O)N(Cc2ccco2)C(C(=O)NCC2CCCO2)c2ccc(F)cc2)c1N (stereo not given)	3	0.72
CC(C)(C)n1nc2c(c1NC(=O)c1ccco1)CS(=O)C2 (stereo not given)	0.09	2
O=C(Nc1cccnc1)c1ccc(Cl)c(Cl)c1	8.1*	0.29*
COc1ccccc1-c1nc(SCC(=O)NCc2ccco2)c2c(=O)n(C)c(=O)n(C)c2n1	0.15	2
COc1ccc(C(=O)CSc2nnc(-c3ccccc3)o2)cc1	0.32	-0.15
CC1CCN(CCCN2C(=O)C3C(C(=O)Nc4ccc(Cl)cc4)C4C=CC3(O4)C2C(=O)NC2CCCCC2)CC1 (stereo not given)	1.2	1
COc1ccccc1C(=O)Nc1nnc(S(=O)(=O)N2CCCCC2)s1	0.5	-0.37
Cc1ccc(N(CC(O)Cn2c3ccccc3c3ccccc32)S(C)(=O)=O)c(C)c1 (stereo not given)	0.01	-1.2
CC1CCC(NS(=O)(=O)c2ccc3c(c2)CC(=O)N3)CC1 (stereo not given)	0.83	-2.2
CCC(CC)C(=O)Nc1nnc(S(=O)(=O)Nc2ccccc2C)s1	0.19	0.28
Nc1ccccc1C(=O)Nc1cccc(C(=O)O)c1	0.03	-0.27

Retrieved by structure from the entries so far (3):
SMILES	KCNQ2 enhance	KCNQ2 enhance baseline
CCn1c(SCC(=O)Nc2ccc(C)cc2)nc2sc3c(c2c1=O)CCN(C)C3	1.2	-0.32
C=CCOc1ccc(CNn2nnnc2N)cc1	0.6	-0.61
COc1ccc(CCNC(=O)CSC2=NS(=O)(=O)c3cc(Cl)ccc3N2)cc1OC	1.5	-1.3

Remaining list, next part
SMILES	KCNQ2 enhance	KCNQ2 enhance baseline
CC(Oc1ccccc1)C(=O)NC1=NCCS1 (stereo not given)	0.59	0.5
NS(=O)(=O)c1ccc(NC(=S)NC(=O)c2ccco2)cc1	2.3	-0.74
CC(C)(C)OC(=O)N1CCC(c2c(C(=O)N3CCN(C(=O)c4ccco4)CC3)cnn2-c2ccc(F)cc2F)CC1	0.27	-1.1
O=C(NCCC(=O)N1CCC2(CC1)NCCc1[nH]cnc12)c1cccc(C(F)(F)F)c1	0.07	0.42
Cc1c(-c2nnnn2-c2ccc(F)cc2)cnc2cc3c(cc12)OCO3	0.93	-0.09
Nc1ncnc(N2CCOCC2)c1N	1.5	0.25
COc1ccc(NC(=O)CN(C)S(=O)(=O)c2cnc[nH]2)cc1	0.54	-1.4
CC(C)c1ccc(C(=O)OCC(=O)NC2CCCC2)cc1	0.64	-0.4
Cc1cccc(Cn2c(N3CCN(CCO)CC3)nc3c2c(=O)[nH]c(=O)n3C)c1	0.56	0.82
CCOc1ccc(-n2c(SCC(=O)NC3CCS(=O)(=O)C3)nnc2-c2cccnc2)cc1 (stereo not given)	1.4	-1.4

Given in CSV form: part of the list above
SMILES,KCNQ2 enhance,KCNQ2 enhance baseline
CCOc1ccc(-n2c(SCC(=O)NC3CCS(=O)(=O)C3)nnc2-c2cccnc2)cc1 (stereo not given),1.4,-1.4
O=C(NCCC(=O)N1CCC2(CC1)NCCc1[nH]cnc12)c1cccc(C(F)(F)F)c1,0.07,0.42
NS(=O)(=O)c1ccc(NC(=S)NC(=O)c2ccco2)cc1,2.3,-0.74
Cc1cccc(Cn2c(N3CCN(CCO)CC3)nc3c2c(=O)[nH]c(=O)n3C)c1,0.56,0.82
CC(C)(C)OC(=O)N1CCC(c2c(C(=O)N3CCN(C(=O)c4ccco4)CC3)cnn2-c2ccc(F)cc2F)CC1,0.27,-1.1
Nc1ncnc(N2CCOCC2)c1N,1.5,0.25
COc1ccc(NC(=O)CN(C)S(=O)(=O)c2cnc[nH]2)cc1,0.54,-1.4

A portion of the library, so the mix of outcomes need not match the whole.
